Six1-Eya2 inh = Six1/Eya2 interaction inhibition; Q15475+O00167; AlphaScreen GST-Six1/His-Eya2 binding, biochemical; stronger effect = lower value; control for the full effect not named in the record; activity change, % (test concentration not listed); actives 0.56% (n = 360,000); AID 651725; in the data active = activity change below about -65%; inconclusive = about -30% to -65%; inactive = above about -30%; further: on the % scale 0 is the no-effect control and ±100 the full control effect; compound concentration not given in the record
Target sequence (O00167 whole entry, looked up): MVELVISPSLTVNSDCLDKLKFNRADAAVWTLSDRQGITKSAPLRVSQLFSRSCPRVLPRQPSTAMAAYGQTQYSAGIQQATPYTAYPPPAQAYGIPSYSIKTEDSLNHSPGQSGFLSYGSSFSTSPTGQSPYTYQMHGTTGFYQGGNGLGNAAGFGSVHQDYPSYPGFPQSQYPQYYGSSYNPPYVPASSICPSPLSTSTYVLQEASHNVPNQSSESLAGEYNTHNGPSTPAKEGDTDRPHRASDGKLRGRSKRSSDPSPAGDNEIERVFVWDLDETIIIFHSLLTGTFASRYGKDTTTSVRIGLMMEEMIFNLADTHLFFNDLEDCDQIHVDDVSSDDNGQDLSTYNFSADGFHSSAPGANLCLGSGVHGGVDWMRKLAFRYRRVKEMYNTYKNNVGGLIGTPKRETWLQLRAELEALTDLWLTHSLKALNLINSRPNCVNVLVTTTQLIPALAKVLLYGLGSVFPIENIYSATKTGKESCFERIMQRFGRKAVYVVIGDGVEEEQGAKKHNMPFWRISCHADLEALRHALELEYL
Target sequence (Q15475 whole entry, looked up): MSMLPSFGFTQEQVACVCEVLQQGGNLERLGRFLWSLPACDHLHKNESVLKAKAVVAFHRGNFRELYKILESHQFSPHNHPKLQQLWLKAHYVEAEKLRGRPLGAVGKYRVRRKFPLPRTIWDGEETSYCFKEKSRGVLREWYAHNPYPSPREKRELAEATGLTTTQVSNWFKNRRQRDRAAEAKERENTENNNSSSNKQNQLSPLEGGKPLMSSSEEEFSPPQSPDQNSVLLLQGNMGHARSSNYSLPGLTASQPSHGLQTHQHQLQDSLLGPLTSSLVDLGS
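Homogeneous AlphaScreen proximity assay pairing GST-Six1 with His-tagged Eya2 (added as 5X mix: 250 nM and 500 nM) in 50 mM Tris pH 8.0, 300 mM NaCl, 1 mM TCEP. Glutathione donor and nickel acceptor beads; 1 h, 37 °C, dark.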
PINK1 expr mod = changes PINK1 expression | actives 0.2% (n = 410,000) | PINK1 immunofluorescence, high-content cytometry, 24 h | Potency, µM (series often up to 76.6 µM), without a hit: top-dose activation (PINK1 increase), hits mostly activators; active = well fitted activation curve with a large enough effect; inconclusive = small, poorly fitted or top-dose-only effect; inactive = flat fitted curve, though single readings scatter; cell line not stated here;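 further: potency means the concentration at half of the fitted maximal effect; % of control where 0% means no effect; nearly all actives have a fitted effect of over 65% in size; a mitochondrial uncoupler was the plate control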
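PINK1 protein level read as immunofluorescence by microplate cytometer in a fixed, stained stable cell line after 24 h exposure to five compound concentrations, with CCCP as control.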
TRPML1 ag = agonists of human TRPML1 channel; actives 0.12% (n = 410,000); TRPML1-expressing cells, Ca2+ dye fluorescence, FDSS; host cell line not named in the record; reference of the full effect not given here; AID 624414; Q9GZU1; activation, % (test concentration not listed); in the data active = activation above about 50%; inconclusive = about 30% to 50%; inactive = below about 30%; further: 0% is about no effect; the text of the record puts the active cut at 80%
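Calcium fluorescence on an FDSS kinetic reader gave the read-out. Tet-induced TRPML1-DL cells were plated overnight, dye-loaded (Ca8 with quencher, 45-90 min, room temperature, dark), then read 110 s after compound addition, and again 110 s after 4uM final 54-4 (EC80).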
D2 PAM = positive allosteric modulators of human D2 dopamine receptor | potentiation, % (concentration not given with the values) | DiscoveRx D2 beta-arrestin cells, luminescence, 90 min; 100% = 57 uM dopamine signal | actives 0.23% (n = 360,000) | AID 624464; active = potentiation of 50% or more; inconclusive = 30% to 50%; inactive = 30% or less;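 further: compound concentration not given in the record; tested on top of an EC20 dose of dopamine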
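PathHunter beta-arrestin assay in DiscoveRx D2 cells. Compounds were added with an EC20 of dopamine (50 nM final) for 90 min at 37 deg C. Luminescence was read 1 h after detection reagent, with 57 uM dopamine as the EC100 control.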
TRPML1 blocker = inhibitors of human TRPML1 channel; activity change, negative = inhibition, % (no concentration beside the values); Q9GZU1; TRPML1-inducible cells, Ca2+ dye fluorescence, FDSS; stronger effect = lower value; inhibition of EC80 agonist-evoked calcium signal; AID 624415; actives 0.02% (n = 390,000); in the data active means activity change below about -50%; inconclusive means about -30% to -50%; inactive means above about -30%;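 further: stimulus is agonist 54-4 at its EC80 concentration; on the % scale 0 is the no-effect control and ±100 the full control effect; compound concentration not given in the record; the text of the record puts the active cut at -80%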
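Calcium fluorescence in TRPML1-DL cells induced overnight with Tet: a 110 s read after compound pin addition, then a 110 s antagonist read after challenge with 54-4 at 4 uM final (EC80).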
D2 agonist = agonists of human D2 dopamine receptor (beta-arrestin). P14416. DiscoveRx PathHunter D2 beta-arrestin, luminescence, 90 min; 100% = 57 uM dopamine signal. activation, % (concentration not given with the values). actives 0.084% (n = 360,000). AID 624465; in the data active = activation above about 40%; inconclusive = about 15% to 40%; inactive = below about 15%; further: compound concentration not given in the record; the text of the record calls up to 30% inactive
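Agonist mode: compounds alone added to overnight-plated D2 PathHunter cells for 90 min at 37 C, with 57 uM final dopamine (EC100) defining full response. Beta-arrestin recruitment detected by chemiluminescent reagent, read after 1 h at ambient temperature.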
An asterisk follows results filed as active; ? = inconclusive; / = not tested or not shown; & = joins results of further samples; [ ] = another dose, or the depositor's remark.

SMILES	Six1-Eya2 inh	PINK1 expr mod	TRPML1 ag	D2 PAM	TRPML1 blocker	D2 agonist
COc1cc(NC(=S)Nc2cccc(C)n2)cc(OC)c1OC	-1.9	-0.3%	1.4	-3.0	-23.8	-3.5
Cc1cc(C)c(S(=O)(=O)c2cc(F)ccc2C)c(Cl)n1	2.3	3.8%	-0.3	-6.0	4.2	1.2
COC(=O)Cn1c2ccccc2c(=O)n1C(C)C	9.8	1.7%	-0.3	/	/	/
CC(=O)Nc1ccc(C(=O)OCC(=O)N(c2ccccc2)C2CCCCC2)cc1	-3.8	-1.2%	1.4	11.2	18.9	1.2
COc1ccc(NC(=O)CSCC(=O)NCCc2ccccn2)cc1	3.4	-0.4%	0.0	-5.2	-21.9	-2.3
O=C(Cc1ccc(-n2c(=O)c3sccc3n(Cc3ccc(F)cc3)c2=O)cc1)NCc1ccco1	-10.7	4.3%	-0.6	-5.3	-10.1	-1.8
COc1ccc(CNC(=O)COC(=O)c2cncc(Br)c2)cc1	1.4	-1.5%	0.5	-0.5	5.7	-1.3
O=C(COc1ccccc1)Nc1ccc([N+](=O)[O-])cc1	1.6	1.3%	-1.8	-6.3	-8.9	-4.3
OCCN(Cc1ccccc1)CC1CC=CCC1 (configuration not stated)	0.9	/	0.3	-15.6	2.6	2.1
O=C(Cc1cccc(NC(=O)C2CCCN(C(=O)c3ccccc3)C2)c1)Nc1ccc(C(=O)N2CCOCC2)cc1 (configuration not stated)	3.9	0.3%	0.1	/	16.7	-3.2
O=C(NCc1ccc(F)cc1)c1cc2n(n1)C(C(F)(F)F)CC(C1CC1)N2 (configuration not stated)	-1.0	2.7%	-0.9	-1.1	3.0	-4.7
C[C@H](CO)N1C[C@H](C)[C@@H](CN(C)Cc2ccc(-c3ccccc3)cc2)Oc2c(NS(=O)(=O)c3ccccc3)cccc2C1=O	-8.0	0.3%	1.0	-14.7	2.0	-2.3
Cc1csc(NC(=O)Cn2nc(C)c([N+](=O)[O-])c2C)n1	5.7	-1.6%	0.5	-4.2	55.0	-4.8
O=[N+]([O-])c1ccc(N/N=C/c2cccs2)nc1	-3.5	18.4%	2.0	-24.9	29.6	-2.9
COc1cccc(-n2c(C)nc3cc(C(=O)O)ccc32)c1	-2.2	1.0%	-0.5&1.1	-2.0	20.2&21.2	-3.2
CCOc1ccc(C(=O)NCC(=O)OCC(=O)NC2CCCC2)cc1	9.9	-1.3%	-0.3	-2.4	-2.0	-1.7
O=C(c1ccoc1)N1CCC2(CCCN(Cc3ccc(F)c(F)c3)C2)C1 (configuration not stated)	-5.2	-1.6%	1.2	-29.3	-7.4	-6.0
CN(C(=O)c1cc(S(=O)(=O)N2CCOCC2)cs1)c1ccccc1	-1.6	-0.4%	0.9	-7.4	-16.2	-5.7
O=C(CCc1ccccc1)Nc1ccc(S(=O)(=O)N2CCOCC2)cc1	1.1	2.4%	-0.1	-2.5	5.1	4.1
CCC1(c2ccc(F)cc2)NC(=O)N(CC(=O)Nc2ccc(C(N)=O)cc2)C1=O (configuration not stated)	-0.4	1.2%	0.5	-4.1	-0.5	0.6
C=CCN(C(=O)COC(=O)c1cc[n+]([O-])cc1)c1nc(-c2ccccc2)cs1	-0.1	-0.5%	-0.6	-4.0	13.1	-0.3
Nc1ccc(Oc2ccccc2-c2ccccc2)cc1	-18.9	5.5%	2.1	-4.4	18.2	0.7
CCCCn1c(SCC(=O)NCc2ccco2)nc2c1c(=O)n(C)c(=O)n2C	6.7	-0.5%	-0.5	-16.7	4.4	0.0
COc1cc(OC)cc(C2=Cc3ccc(OC)cc3C(CC(C)=O)N2c2ccc(C#CC3(O)CCCCC3)cc2)c1 (configuration not stated)	9.8	0.3%	-0.1	/	/	/
COc1cc(OC)cc(-c2c(C#Cc3ccsc3)c3cc(-c4ccc(OC)cc4F)ccc3n2C)c1	4.2	-1.3%	-0.6	-12.9	6.8	2.5
(next part)
SMILES	Six1-Eya2 inh	PINK1 expr mod	TRPML1 ag	D2 PAM	TRPML1 blocker	D2 agonist
CN(C)c1ccc(NC(=O)Nc2ccc3c(c2)c(=O)n(C)n3Cc2ccc(Cl)cc2)cc1	?	1.3%	-0.3	1.1	/	14.8
Cc1ccc(S(=O)(=O)N2CCN(C(=O)COC(=O)c3ccccc3OC(F)F)CC2)c(C)c1	5.8	-0.8%	2.6	-3.9	-4.0	-2.6
CC(C)(C)n1ncc2c(=O)n(Cc3cc(F)c(Cl)cc3Cl)cnc21	/	8.1%	1.2	/	-10.3	/
CCN(CC)c1ccc(/C=N/NC(=O)Cc2nnc(NC(=O)Nc3ccccc3)s2)cc1	5.4	0.4%	0.4	5.3	-20.1	-7.7
Cc1ccc(Cl)cc1NCN1C(=O)c2ccccc2C1=O	-4.1	1.7%	-0.7	-4.1	2.5	0.6
COC(=O)c1nc2ccc(N3CCOCC3)cc2c(C)c1C(=O)OC	3.5	2.0%	3.1	11.1	-6.5	4.9
COc1ccc(NC(=O)CSc2ccccc2)c([N+](=O)[O-])c1	4.8	-0.7%	2.0	-10.0	-11.4	-0.8
CC(C)c1ccc(C(=O)CC2(O)C(=O)N(CN3CCOCC3)c3ccccc32)cc1 (configuration not stated)	0.1	0.0%	-0.5	19.3	-0.7	-3.8
CCC(C)(C)NC(=O)C(c1cccc(OC)c1)N(C(=O)CNC(=O)c1cccs1)c1cccnc1 (configuration not stated)	8.2	2.4%	0.3	-2.9	-16.4	-1.5
Cc1ccc(OCCNC(=O)/C=C/c2ccco2)cc1C	-8.6	1.0%	3.2	-4.3	-18.0	-0.1
COc1ccccc1OCCCCCNCCO	-0.4	-1.3%[38.3 µM]	0.6	-3.7	2.0	-1.7
Cc1nn(C)cc1S(=O)(=O)Nc1ccc2c(c1)OCCO2	11.8	1.7%	-0.4	-3.2	7.8	7.2
Fc1cc2[nH]cnc2cc1Cl	-0.2	-0.4%	4.9	-8.6	20.5	-4.4
Cc1ccc(NC(=O)NC(C)c2c(-n3cccc3)sc(C)c2C)cc1F (configuration not stated)	/	?	2.8	/	-0.5	/
Cc1c(Cl)ccc(S(=O)(=O)N2CCN(C)CC2)c1Cl	-2.2	0.6%	-0.4	-12.9	-18.1	-2.7
Cc1cc(=O)[nH]c(N/N=C/c2cc(C)n(-c3ccccc3)c2C)n1	4.5	-1.6%	1.6	-1.1	20.4	-0.3
Cc1ccc([C@H]2C(C(=O)O)=C[C@@H](CC3CCCC3)N2S(=O)(=O)c2ccc(C)cc2)cc1	-4.9	-0.6%	-0.3	/	6.4	-2.2
COc1ccc(CNC(=O)CCS(=O)(=O)c2cc3c4c(c2)CCN4C(=O)CC3)cc1OC	/	-1.1%	-1.0	/	-6.3	/
COc1cccc(/C=C2\SC(=S)N(N3C(=O)CCCC3=O)C2=O)c1	-0.8	-2.4%	1.4	1.1	?	9.0
CCn1cc(S(=O)(=O)c2cccc(C)c2)c(=O)c2cc(F)c(N3CCCC(C)C3)cc21 (configuration not stated)	/	-9.1%	1.8	/	23.8	/
COC(=O)c1ccc2nc(-c3ccco3)c(Cc3ccccc3)n2c1	0.0	2.2%	1.5	-5.9	30.9	-5.0
Cc1cc(C)nc(SC(C(=O)O)c2ccccc2)n1 (configuration not stated)	-0.2	1.6%	0.2	-3.2	10.3	-5.6
CCOc1ccc2c(c1)C(=NNC(=O)c1ccncc1)c1cc(OCC)ccc1-2	-8.4	?	-0.5	-3.5	8.2	1.1
COc1ccccc1/C=N/NC(=O)c1ccc2c(c1)OCO2	1.2	7.6%	0.2	-15.7	10.6	-2.8
Cc1nc(C)c(C(=O)OC(C)C(=O)Nc2ccc(F)cc2)s1 (configuration not stated)	-3.7	-1.1%	-0.4	-1.8	-1.4	-2.4

3 compounds from above, ordered by the number in Six1-Eya2 inh, largest number first.
| SMILES | Six1-Eya2 inh | PINK1 expr mod | D2 PAM | TRPML1 blocker | D2 agonist |
| --- | --- | --- | --- | --- | --- |
| Cc1cc(=O)[nH]c(N/N=C/c2cc(C)n(-c3ccccc3)c2C)n1 | 4.5 | -1.6% | -1.1 | 20.4 | -0.3 |
| COC(=O)c1nc2ccc(N3CCOCC3)cc2c(C)c1C(=O)OC | 3.5 | 2.0% | 11.1 | -6.5 | 4.9 |
| Cc1nc(C)c(C(=O)OC(C)C(=O)Nc2ccc(F)cc2)s1 (configuration not stated) | -3.7 | -1.1% | -1.8 | -1.4 | -2.4 |

Going on with the list.
SMILES	Six1-Eya2 inh	PINK1 expr mod	TRPML1 ag	D2 PAM	TRPML1 blocker	D2 agonist
COc1cccc(Cn2c(C)c(CNCc3cccc(C)c3)c(C(=O)O)c2C)c1	/	1.3%	3.3	/	4.8	/
CCOC(=O)C[C@H]1c2ccccc2S(=O)(=O)N1Cc1ccc(Cl)cc1	-2.0	4.0%	-0.4&-0.3	-13.0	-2.9	0.0
COc1ccccc1-c1cc(-c2cc(Cl)ccc2O)n[nH]1	2.0	-2.5%	0.6	4.9	-1.3	-1.6
O=C(NC(NC(=S)Nc1cc(Cl)ccc1Cl)C(Cl)(Cl)Cl)c1ccco1 (configuration not stated)	-21.8	3.0%[38.3 µM]	1.7	-26.6	2.7	-3.0
Cc1ccc(C(=O)CN2CCC(NC(=O)C3CCCCC3)CC2)cc1	0.7	0.3%	-0.9	5.0	11.6	-1.6
Cc1ccc(-n2ncc3c(NCCCn4ccnc4)ncnc32)cc1C	/	-0.4%	0.0	/	37.5	/
O=C(c1ccco1)N(Cc1ccco1)c1ccc(O)cc1	-1.1	-1.5%	-1.0	20.7	8.0	-0.8
Cc1nnc(SCC(=O)Nc2cc(S(=O)(=O)N3CCCC3)ccc2Cl)s1	0.1	-0.7%	0.3	-8.6	-3.5	-2.2
CCOc1ccccc1NC(=O)Cn1c(=O)n(Cc2cccs2)c(=O)c2cccnc21	/	0.0%	-0.1	/	25.9	/
O=C(c1ccccc1F)N1CCN(c2ccc([N+](=O)[O-])c3ncccc23)CC1	-15.3	3.4%	0.3	6.7	17.9	1.4
COc1cccc(NC(=O)C2CCC(CNC(=O)[C@@H]3Cc4ccccc4CN3)CC2)c1 (some centres not stated)	3.7	-1.3%	-0.3	-17.8	54.1	-3.4
O=C(NCCOc1ccccc1)c1ccc2c(c1)S(=O)(=O)c1cc(Cl)ccc1C2=O	-24.3	3.8%	-0.3	72.9*	35.2	7.4
CC(C)OC(=O)Cn1cc(C#N)c2ccccc21	-4.5	-1.2%	0.1	-9.1	6.8	-3.5
CCCCn1c(NS(=O)(=O)c2ccccc2)c(S(=O)(=O)c2ccc(C)cc2)c2nc3ccccc3nc21	8.9	?	0.7	-29.8	4.4	-3.3
O=C(Cn1nnc2ccccc2c1=O)N[C@@H](Cc1c[nH]c2ccccc12)C(=O)O	-5.1	-0.1%	0.2	-9.3	3.6	3.4

The order is random (roughly 1% active in at least one column).
